Mtb H37Rv: M. tuberculosis H37Rv growth inhibitors, H37Rv strain (AID 1626); inhibition, % at 10 µM, or IC50 in µM where a hit was titrated; 220,000 tested, 0.95% active; M. tuberculosis H37Rv growth inhibition; higher % means a stronger effect;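 active means confirmed in a dose series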;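 further: bacteria incubated seven days before Alamar blue readout; 0% = bacteria only wells and 100% = bacteria with antibiotic wells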
RecA splice inh: Mtb RecA intein splicing inhibition | cell-free RecA intein splicing, fluorescence | inhibition, %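 (about 9 µM by stock and volumes)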 | 290,000 tested, 0.75% active | AID 2221; in the data active means inhibition above about 30%;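 further: 0% = vehicle wells and 100% = reference inhibitor control wells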
Target sequence (P9WHJ3 whole entry, looked up, canonical isoform): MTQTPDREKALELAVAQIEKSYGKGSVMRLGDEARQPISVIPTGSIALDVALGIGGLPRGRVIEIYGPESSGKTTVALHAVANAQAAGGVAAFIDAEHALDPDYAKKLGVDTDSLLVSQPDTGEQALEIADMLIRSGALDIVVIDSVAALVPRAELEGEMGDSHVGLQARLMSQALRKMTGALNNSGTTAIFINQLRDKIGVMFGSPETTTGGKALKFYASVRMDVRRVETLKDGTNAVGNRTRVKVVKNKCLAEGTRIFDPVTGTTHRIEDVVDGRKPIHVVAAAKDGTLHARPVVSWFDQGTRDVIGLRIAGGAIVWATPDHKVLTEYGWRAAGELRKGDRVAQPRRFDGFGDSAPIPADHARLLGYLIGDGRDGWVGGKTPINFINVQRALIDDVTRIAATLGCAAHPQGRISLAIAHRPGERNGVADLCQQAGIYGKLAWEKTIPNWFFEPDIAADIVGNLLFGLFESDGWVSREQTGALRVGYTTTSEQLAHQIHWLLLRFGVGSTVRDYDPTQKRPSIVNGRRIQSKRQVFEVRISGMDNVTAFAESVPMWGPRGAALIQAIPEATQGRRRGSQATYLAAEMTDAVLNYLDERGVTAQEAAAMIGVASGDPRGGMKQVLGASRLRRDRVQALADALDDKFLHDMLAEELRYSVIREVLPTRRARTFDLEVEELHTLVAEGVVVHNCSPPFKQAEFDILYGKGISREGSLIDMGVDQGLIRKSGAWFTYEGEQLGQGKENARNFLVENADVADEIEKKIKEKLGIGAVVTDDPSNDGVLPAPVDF
Mtb bLac sens: beta-lactam sensitization of Mtb H37Rv. M. tuberculosis H37Rv growth with meropenem, percent inhibition; hits of this screen are not shown here. 330,000 tested, 0.27% active. inhibition, % at 25 µM;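 active means about 74% or more and at least 40 points above the plate without the antibiotic, then above 30% in a dose series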;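 further: growth measured after seven days incubation then overnight dye step; 0% = bacteria only wells and 100% = bacteria with antibiotic; twin plates without the antibiotic show which effects depend on it; some results filed as inactive read as strong as hits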
YopH PTP inh: blocks Yersinia enterocolitica YopH tyrosine phosphatase | AID 898 | fluorescence Ex485/Em525 | 140,000 tested, 0.16% active | inhibition, %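 (about 10 µM by stock and volumes)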;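 active means inhibition of 50% or more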;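 further: controls were vehicle for no effect and minimum signal wells for full effect; inactives centre near -20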
Arbovirus inh: blocks arbovirus infection; arbovirus infection cell-based antiviral screen; inhibition, % at 10 µM; 200,000 tested, 0.37% active;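 active means inhibition from about 30%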;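 further: bluetongue infection of BSR cells; cell survival read as ATP light after 72 h; 0% = infected wells without compound and 100% = uninfected wells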
Arbovirus inh repeat: also measured in Arbovirus inh; calls as there; inhibition, %; measured here: 10K subset replicate screen; many hits read low in the repeat;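 first of two repeat runs on a subset; 0% = infected and 100% = uninfected wells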
Starred values were filed as active, the others as inactive; . = no result given.

SMILES	Mtb H37Rv	RecA splice inh	Mtb bLac sens	YopH PTP inh	Arbovirus inh	others
COc1ccc(-c2cc(C(=O)NC(Cc3c[nH]c4ccccc34)C(=O)O)c(C)o2)cc1OC (stereo not drawn)	-4%	-0.4	3	-26	9
O=C(CN1CCN(C2CCCCC2)CC1)Nc1cccc2ccccc12	2%	-1.6	-9	.	-1
O=C(NC1CCCCC1)C1CCC(CNS(=O)(=O)c2cccc3nsnc23)CC1 (stereo not drawn)	-4%	1.0	-8	-24	-17
COC(=O)COn1c(SCC(=O)OC)nc2ccccc2c1=O	1%	-0.2	14	-18	6
CCNc1nc(NCC)n2c(SCC(=O)Nc3c(C)cccc3C)nnc2n1	.	0.5	-9	.	.
COc1cc(CNCc2ccccn2)ccc1OCc1c(Cl)cccc1Cl	57%	.	89	-9	-8
CCC(C)(C)n1nnnc1C(c1ccccn1)N1CCOCC1 (stereo not drawn)	-2%	-1.1	0	-34	10
CC(C)CC(CO)N1CCN(C(=O)c2ccc(C(C)(C)C)cc2)CCC1=O (stereo not drawn)	-6%	.	-3	-19	11
O=C(CCC(=O)OCCCC(F)(F)C(F)(F)F)Nc1ccc(Cl)cc1Cl	-11%	-1.7	4	-12	1
COc1ccccc1Nc1nc(-c2cccnc2)cs1	.	1.4	2	.	.
Cc1cccc(-c2nc3ccccc3c(=O)[nH]2)c1	.	-1.2	2	.	.
Brc1csc(/C=N/Nc2nc3ccccc3s2)c1	64%	1.4	7	-29	10
C=CCn1c(O)c(C(C)=NCCN2CCN(C(=S)NC)CC2)c(=O)[nH]c1=O	-1%	-0.8	3	.	.
CCC1=NN2C(=N)/C(=C\c3cccn3-c3ccc(Cl)cc3)C(=O)N=C2S1	1%	4.8	0	.	13
CCN(CC)P(=O)(c1ccccc1)c1c(C)nc2ccccn12 (stereo not drawn)	.	-0.2	6	.	.
O=C(CSc1nncn1-c1cccnc1)Nc1ccccc1[N+](=O)[O-]	.	-5.2	17	.	.
CCCCCC1=CCC/C1=N\NC(=O)c1ccc2c(c1)OCO2	0%	-5.8	0	.	-17
Cc1ccc(CNC(=O)CN2C(=O)COc3ccc(C)cc32)cc1	1%	-1.1	-2	-33	6
O=C(c1ccc(-c2ccccc2Cl)s1)N1CCOCC1	-5%	1.6	10	.	.
COc1ccccc1CNCC(O)(c1ccc(Cl)cc1)c1ccc(Cl)cc1	-10%	12	95	-7	-37
CSc1ccccc1C(=O)C1CCCN(Cc2cnn(-c3ccccc3)c2)C1 (stereo not drawn)	1%	1.6	-5	.	-4
CC(C)CC(=O)NC(Nc1ccccc1F)C(Cl)(Cl)Cl (stereo not drawn)	.	3.1	-6	-4	9
CC(C)(C)NS(=O)(=O)c1ccc(NC(=O)C2CCCCC2)cc1	3%	0.8	-1	.	1
CCOC(=O)c1ccc(NC(=O)COc2ccccc2CNC2CCCC2)cc1	11%	5.3	8	.	-27
Cc1nn(-c2nc3ccccc3s2)c(C)c1Oc1ccccc1O	29%	3.4	16	-40	-29

The list continues.
SMILES	Mtb H37Rv	RecA splice inh	Mtb bLac sens	YopH PTP inh	Arbovirus inh	others
CC1=C(C(=O)OC(C)C)C(c2ccc(Cl)cc2)n2c(s/c(=C\c3ccc(OCC(=O)O)cc3)c2=O)=N1 (stereo not drawn)	.	-12	13	.	.
C=CCN(CC=C)CCOc1ccc(C)cc1[N+](=O)[O-]	6%	9.4	-3	.	3
O=C(NC1CCCC1)c1ccc(CN2CCOCC2)cc1	-4%	-2.5	-1	5	-10
C=CCn1c(Sc2ncc([N+](=O)[O-])s2)n[nH]c1=O	-11%	1.3	-4	.	.
CCc1ccc(N2CC(C(=O)N/N=C/c3ccccc3)CC2=O)cc1 (stereo not drawn)	.	-1.0	-7	.	.
O=C(CSc1ccc2nnc(CCNC(=O)c3ccccc3)n2n1)NCCc1ccccc1	.	0.3	-4	.	.
O=C(NCc1ccncc1)c1ccc(NS(=O)(=O)c2ccccc2)cc1	.	5.5	2	.	.
COc1ccc(C(C)(C)C)cc1NC(=O)c1c(C)noc1C	0%	1.5	0	-38	-2
CCC(C)(C)C(=O)Nc1cc([N+](=O)[O-])ccc1Cl	4%	-1.7	8	-22	-3
Cc1ccc(O)c(NC(=O)c2cc(-c3ccccc3Cl)on2)c1	.	3.5	6	.	.
Cn1c2ccccc2c(=O)c2ccc(C#Cc3ccc(N)cc3)cc21	.	-32	85	.	.
O=C(CCCN1C(=O)c2ccccc2C1=O)Nc1sc2c(c1C(=O)NCc1ccco1)CCC2	-5%	4.3	-10	-3	3
O=C(CCCCCn1c(SCc2ccncc2)nc2ccccc2c1=O)NCc1ccco1	-6%	.	9	6	3
CCC(CC)=NNc1cccc([N+](=O)[O-])c1	2%	-2.0	9	-18	2
COc1cc(C(=O)OC2CSCC2NC(=O)c2ccccc2)cc(OC)c1OC (stereo not drawn)	-10%	-2.6	-3	.	-9
COc1ccc2cc(C(=O)Nc3ccc(O)cc3)sc(=O)c2c1OC	12%	-9.6	6	-20	-4
N#Cc1nc(-c2ccc(F)cc2)oc1N1CCCCC1	.	1.3	-7	.	.
COc1ccccc1CNC(=O)/C=C/c1ccc(S(=O)(=O)NCc2ccco2)cc1	8%	4.6	3	-25	1
S=C(NCc1cccc(Cl)c1)NC1CCCCC1	4%	5.5	0	-3	12
O=C(NCc1ccccn1)c1cccn1-c1ncc(C(F)(F)F)cc1Cl	-3%	1.8	0	.	-1
Cc1ccc(/C=C/c2nnc(-c3cccs3)o2)cc1	4%	5.6	2	-8	14
COc1ccc(/C=N\NC(=O)c2cc(OCC(F)(F)F)ccc2OCC(F)(F)F)cc1	-5%	-1.9	-2	-23	-4
CSc1ccccc1C(=O)N(CC1CCCO1)c1c(N)n(Cc2ccccc2)c(=O)[nH]c1=O (stereo not drawn)	.	-3.0	-7	.	.
Cc1ccc(NC(=O)c2cc(-c3ccccc3)nn2-c2ccccc2)cc1	17%	0.7	13	-34	6
COc1cccc(NC(=O)CN2C(=O)c3cccnc3Oc3ccc(Cl)cc32)c1	.	2.5	6	.	.

4 compounds from above, sorted by formula weight, lowest first.
SMILES	Mtb H37Rv	RecA splice inh	Mtb bLac sens	YopH PTP inh	Arbovirus inh	others
C=CCN(CC=C)CCOc1ccc(C)cc1[N+](=O)[O-]	6%	9.4	-3	.	3
COc1ccc(C(C)(C)C)cc1NC(=O)c1c(C)noc1C	0%	1.5	0	-38	-2
Cn1c2ccccc2c(=O)c2ccc(C#Cc3ccc(N)cc3)cc21	.	-32	85	.	.
COc1ccc2cc(C(=O)Nc3ccc(O)cc3)sc(=O)c2c1OC	12%	-9.6	6	-20	-4

The results go on.
SMILES	Mtb H37Rv	RecA splice inh	Mtb bLac sens	YopH PTP inh	Arbovirus inh	others
CN1C2CCC1CC(NC(=O)c1ccc(Cl)cc1)C2 (stereo not drawn)	-1%	1.0	-8	.	.
C=CCNC(=O)C1CCC(CNc2nc(=S)[nH]c3ccccc23)CC1 (stereo not drawn)	.	0.5	-15	.	.
C=CCN1C(=O)/C(=C2/Sc3ccccc3N2CC)SC1=S	.	-4.8	2	.	.
Cc1nn2c(-c3ccc(Cl)cc3)nnc2s1	0%	1.7	-22	-32	1
Nc1nc(SCC(=O)Nc2ccc(Br)cc2F)n[nH]1	0%	.	0	37	1
O=c1[nH]n(Cc2ccccc2)c(=O)c2ccccc12	5%	-1.2	-8	-34	4
COc1ccc(N(CC(=O)O)S(=O)(=O)c2ccc(C)cc2)cc1Cl	-9%	-1.2	-3	.	2
CCCCN1CCN=C1Nc1ccccc1	.	0.0	-2	.	.
O=C(NCc1ccc2c(c1)OCO2)c1cc(-n2cnnc2)ccc1Cl	2%	0.7	-18	-18	0
Cc1cc2ccccc2n1CCNC(=O)C1CCCCC1	-6%	2.7	-6	-48	0
O=C(CSc1ccc2nnc(CCNC(=O)c3ccccc3)n2n1)Nc1ccc(F)cc1F	.	-1.6	-4	.	.
O=C(N/N=C/c1cccc(NC(=O)c2ccc(Cl)cc2)c1)c1cccc(O)c1	-4%	-6.9	80	.	.
COC(=O)C(O)(CC(=O)Nc1ccc(OC)cc1)C(F)(F)F (stereo not drawn)	-10%	-0.4	-3	-41	8
Cc1cc(C(=O)NC2CCCCC2)c(C)o1	.	5.1	-12	.	.
CCOC(=O)N1CCN(S(=O)(=O)c2ccc(C(=O)N(CCCN(C)C)c3nc4c(F)cc(F)cc4s3)cc2)CC1	.	2.6	-1	.	.
COC(=O)C(C(C)C)N1CCc2c(C)nc3c(C#N)cnn3c21 (stereo not drawn)	8%	4.4	-7	.	2
CCOC(=O)Cc1nnc(NC(=O)Nc2ccccc2)s1	1%	-3.3	-1	-18	5
CCOC(=O)C1C2C=CC3(CN(C4CCCC4)C(=O)C13)O2 (stereo not drawn)	6%	2.1	-8	-14	8
CC1(C)CC[C@]2(C(=O)O)CC[C@]3(C)C(=CCC4[C@@]5(C)CC[C@H](O)C(C)(C)C5CC[C@]43C)C2C1 (stereo partly drawn)	0%	0.2	0	-24	4
Cc1ccc(-c2ccc3nnc(SCC(N)=O)n3n2)cc1	2%	0.7	-5	.	-1
Cc1cc(C)c(C2=NOC3C4CCC(C4)C23)c(C)c1 (stereo not drawn)	-2%	1.9	-5	-36	-7
CSc1nnc2c3cc(F)ccc3n(C)c2n1	.	-5.0	0	.	.
Cc1nc(NC(=O)c2ccc(F)cc2)sc1C(=O)Nc1ccc2c(c1)CCC2	11%	0.6	3	-9	-5
N#C/C(=C\c1ccncc1)c1ccccn1	.	-0.4	2	.	.
Cc1ccc(/C=c2/sc3nnc(-c4ccccc4Cl)n3c2=O)o1	-3%	1.0	8	17	1	Arbovirus inh repeat=3

(continued)
SMILES	Mtb H37Rv	RecA splice inh	Mtb bLac sens	YopH PTP inh	Arbovirus inh	others
COC(=O)c1ccc(OC(=O)N2CCOCC2)cc1	.	-2.7	5	.	.
COc1ccccc1OCC(=O)OCC(=O)Nc1sccc1C(N)=O	5%	-0.5	-4	-6	4
CCc1ccc(OCC(=O)N2CCc3ccccc32)cc1	.	1.5	4	.	.
Cc1cc(/C([O-])=C(/C(=S)Nc2ccc(F)cc2)[n+]2ccccc2)c(C)n1-c1ccc(F)cc1	3%	4.5	-5	4	-2
CN(C)c1ccnc2sc3c(=O)n(Cc4ccccc4)cnc3c12	3%	-8.8	-6	-17	-23
Cc1c(C(=O)Nc2cc(F)ccc2F)sc2nc3n(c(=O)c12)CCCCC3	.	3.3	0	.	.
Cc1ccnc(NS(=O)(=O)Cc2ccccc2)c1	-2%	-3.2	-8	6	7
O=C(c1ccc2c(c1)OCO2)N1CCN(c2ncccn2)CC1	-7%	1.9	7	-20	11
Cc1cccc(C)c1NC(=O)C(NC(=O)c1ccccn1)c1ccccc1[N+](=O)[O-] (stereo not drawn)	6%	-6.9	-11	-23	4
Cc1ccc(-c2csc(NC(=O)CN3CCC(C(N)=O)CC3)n2)cc1	.	3.1	2	.	.
Cn1cccc1CC(=O)N/N=C/c1ccc(Cl)c([N+](=O)[O-])c1	-9%	5.8	-6	.	.
COCCNC(=S)Nc1ccc([N+](=O)[O-])cc1C	12%	-0.9	3	.	5
Nc1c(C(=O)c2ccccc2)sc2c1c(=O)[nH]c(=O)n2-c1ccccc1	9%	-1.4	-1	-20	15
CC1CN(CC(=O)c2c(N)n(Cc3ccccc3)c(=O)n(C)c2=O)CC(C)O1 (stereo not drawn)	-3%	-1.9	-2	3	-1
COc1cc(SC)ccc1C(=O)Nc1ccc2ncccc2c1	.	2.7	3	.	.
CN1CCN(C(=O)c2cnn(-c3ccccc3)c2NC(=O)c2ccccc2Br)CC1	.	1.5	0	.	.
Cc1cc(N2CC34C=CC(O3)C(C(=O)O)C4C2=O)no1 (stereo not drawn)	-5%	-2.9	-5	-36	-1
CN(C)/C=C/C(=O)c1ccccc1F	-1%	-4.5	4	-3	7
COc1cccc(OC)c1C(=O)N1CCN(S(=O)(=O)c2ccccc2)CC1	-4%	0.4	8	-172	4
CCOC(=O)C1CCN(S(=O)(=O)c2ccc(OC)c(Cl)c2Cl)CC1	1%	-0.1	17	1	3
CCCNC(=O)Cn1nc(C(F)(F)F)cc1C	-2%	-0.2	7	.	-1
O=C(O)C(Sc1ccncn1)c1ccccc1 (stereo not drawn)	5%	-1.2	5	.	6

A section from further up, for reference:
SMILES	Mtb H37Rv	RecA splice inh	Mtb bLac sens	YopH PTP inh	Arbovirus inh	others
COC(=O)c1ccc(OC(=O)N2CCOCC2)cc1	.	-2.7	5	.	.
COc1ccccc1OCC(=O)OCC(=O)Nc1sccc1C(N)=O	5%	-0.5	-4	-6	4
CCc1ccc(OCC(=O)N2CCc3ccccc32)cc1	.	1.5	4	.	.
Cc1cc(/C([O-])=C(/C(=S)Nc2ccc(F)cc2)[n+]2ccccc2)c(C)n1-c1ccc(F)cc1	3%	4.5	-5	4	-2
CN(C)c1ccnc2sc3c(=O)n(Cc4ccccc4)cnc3c12	3%	-8.8	-6	-17	-23
Cc1c(C(=O)Nc2cc(F)ccc2F)sc2nc3n(c(=O)c12)CCCCC3	.	3.3	0	.	.

Screening data as filed in PubChem.

This is a subset; count on the stated rates, not on these rows.
